FGF22 binding: binders of recombinant human FGF22 by thermal shift. SYPRO orange fluorescence; percent of sucrose octasulfate shift, DMSO zero. AID 651658. 340,000 compounds, 1.5% hits. calls only at 9.99 µM. Q9HCT0;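 active = melting point raised past a set limit in the mean and every replicate; three in four hits are not shown here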
Target sequence (Q9HCT0 whole entry, looked up): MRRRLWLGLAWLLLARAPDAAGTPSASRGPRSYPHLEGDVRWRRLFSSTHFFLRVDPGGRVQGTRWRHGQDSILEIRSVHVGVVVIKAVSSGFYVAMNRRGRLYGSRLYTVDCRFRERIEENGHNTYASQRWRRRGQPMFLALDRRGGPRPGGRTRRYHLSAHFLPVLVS
Calls only; i = inactive. Not all compounds are listed (hit frequency here may not be typical).

SMILES	FGF22 binding
Cc1ccc(S(=O)(=O)N(C)C[C@@H]2Oc3ccc(NC(=O)CCCCCC(=O)Nc4ccccc4N)cc3C(=O)N([C@H](C)CO)C[C@H]2C)cc1	i
C[C@H](CO)N1C[C@H](C)[C@@H](CN(C)C(=O)Cc2ccccc2)Oc2cc(C#CC3(O)CCCC3)ccc2S1(=O)=O	i
C[C@H]1CN([C@@H](C)CO)C(=O)Cc2cc(NC(=O)CCCN(C)C)ccc2O[C@@H]1CN(C)S(=O)(=O)c1cccs1	i
COCCNC(=O)C[C@H]1C[C@@H]2c3cc(NC(=O)c4ccc5c(c4)OCO5)ccc3O[C@@H]2[C@H](CO)O1	i
COc1ccc2c3c([nH]c2c1)[C@H](CO)N(C(=O)Nc1ccc(F)cc1)CC31CN(S(=O)(=O)c2cn(C)cn2)C1	i
COCCNC(=O)C[C@H]1C[C@@H]2c3cc(NC(=O)NC4CCCCC4)ccc3O[C@@H]2[C@H](CO)O1	i
N#C[C@@H]1[C@@H](c2ccccc2C2=CCCCC2)[C@@H](CO)N1C(=O)c1cccc(F)c1	i
O=C(C1CCOCC1)N1CC[C@@H]2[C@@H](CO)Nc3ccc(-c4cccc(F)c4)cc3[C@@H]21	i
CCCC(=O)Nc1ccc2c(c1)C(=O)N(C)[C@H]1CC[C@@H](CC(=O)NCc3ccccc3)O[C@@H]1CO2	i
O=S1(=O)N[C@H](Cc2ccccc2)COc2cc(N3CCOCC3)ccc21	i
CNC[C@@H]1Oc2c(NS(=O)(=O)c3cccs3)cccc2C(=O)N([C@H](C)CO)C[C@H]1C	i
C[C@@H]1CN([C@H](C)CO)C(=O)c2cc(NS(=O)(=O)c3cccs3)ccc2O[C@@H](C)CCCCO[C@@H]1CN(C)Cc1ccc(Cl)c(Cl)c1	i
C[C@@H]1CN([C@@H](C)CO)C(=O)c2cc(C3=CCCC3)cnc2O[C@H]1CN(C)C(=O)C1CCCCC1	i
COc1ccc2c3c(n(C)c2c1)[C@@H](CO)N(Cc1cccnc1)CC31CN(C(=O)NC(C)C)C1	i
C[C@H]1CN([C@@H](C)CO)C(=O)Cc2cc(NC(=O)Nc3ccc(C(F)(F)F)cc3)ccc2O[C@@H]1CN(C)C(=O)NC1CCCCC1	i
CC(C)NC(=O)Nc1ccc2c(c1)C(=O)N([C@@H](C)CO)C[C@H](C)[C@H](CN(C)C(=O)c1ccncc1)OCCCC[C@H](C)O2	i
C[C@@H]1CN([C@H](C)CO)C(=O)c2cc(/C=C/c3ccccc3)cnc2O[C@@H]1CN(C)S(=O)(=O)c1cn(C)cn1	i
COc1ccc(C#Cc2ccc3c(c2)[C@@H]2[C@@H](CCN2S(=O)(=O)c2ccc(OC)cc2)[C@@H](CO)N3C)cc1	i
COc1ccc(CN(C)C[C@@H]2Oc3ccc(NS(=O)(=O)c4ccc(C)cc4)cc3CC(=O)N([C@@H](C)CO)C[C@@H]2C)cc1	i
CN1[C@@H]2c3ccc(-c4cncnc4)c(=O)n3C[C@@H]2[C@@H](CO)[C@@H]1C(=O)NC1Cc2ccccc2C1	i
CN1CCN(C(=O)C[C@@H]2CC[C@@H]3[C@H](COC[C@@H](O)CN3Cc3ccc(Oc4ccccc4)cc3)O2)CC1	i
C[C@@H]1CN([C@H](C)CO)C(=O)c2cccc(NC(=O)Nc3ccc4c(c3)OCO4)c2O[C@H]1CN(C)Cc1ccccc1	i
C[C@H](CO)N1C[C@H](C)[C@H](CN(C)Cc2ccc(C(=O)O)cc2)Oc2ccc(NS(=O)(=O)c3ccccc3)cc2C1=O	i
O=C(Nc1cc(F)ccc1F)N1C[C@H]2[C@@H](c3ccccc31)[C@@H](CO)N2Cc1ccncc1	i
C[C@@H]1CN([C@H](C)CO)C(=O)Cc2cc(NS(=O)(=O)c3cccs3)ccc2O[C@H]1CN(C)S(=O)(=O)c1cn(C)cn1	i
C[C@H]1CN([C@@H](C)CO)C(=O)Cc2cc(NC(=O)C3CCCCC3)ccc2O[C@H]1CN(C)CC1CC1	i
C[C@@H]1CN([C@@H](C)CO)C(=O)c2cc(NC(=O)Cc3ccccc3)ccc2O[C@@H]1CN(C)S(=O)(=O)c1ccc(F)cc1	i
CC(=O)N1[C@H](CO)[C@H](c2ccccc2)[C@@H]1CN(C(=O)c1ccccc1)C(C)C	i
CC=Cc1ccc2n(c1=O)C[C@@H]1[C@@H](CO)[C@H](C(=O)NCc3ccccc3)N(S(C)(=O)=O)[C@H]21 (mixture of isomers)	i
C/C=C/c1ccc2c(c1)O[C@H](CN(C)C(=O)c1cccnc1)[C@@H](C)CN([C@H](C)CO)S2(=O)=O	i
CC(C)NC(=O)N(C)C[C@@H]1Oc2ccc(NC(=O)Nc3ccccc3)cc2CC(=O)N([C@@H](C)CO)C[C@@H]1C	i
C[C@H]1CN([C@@H](C)CO)C(=O)c2cc(C#CCc3ccccc3)cnc2O[C@@H]1CN(C)Cc1cccc(C(=O)O)c1	i
CC(C)(C)[S@](=O)N1Cc2cc(C(=O)N3CCCCC3)nc(-c3cccc(C4=CCCC4)c3)c2[C@@H]1CCO	i
C[C@@H](NC(=O)C[C@H]1CC[C@@H]2[C@H](COC[C@@H](O)CN2C(=O)Nc2cccc(Cl)c2)O1)c1ccccc1	i
COc1cc(C(=O)NC2CCCCN(C)C2=O)cc(OC)c1OC (stereo unspecified)	i
C/C=C/c1cnc2c(c1)C(=O)N([C@H](C)CO)C[C@H](C)[C@@H](CN(C)S(=O)(=O)c1ccc(F)cc1)O2	i
Cc1ccc(S(=O)(=O)N(C)C[C@@H]2Oc3c(NC(=O)C4CCOCC4)cccc3C(=O)N([C@@H](C)CO)C[C@H]2C)cc1	i
CCCC#Cc1ccc([C@H]2[C@@H](CO)N3CCCCN(S(C)(=O)=O)C[C@@H]23)cc1	i
CC(C)CC#Cc1ccc2c(c1)O[C@@H](CN(C)C(=O)Cc1cccnc1)[C@@H](C)CN([C@@H](C)CO)S2(=O)=O	i
C[C@H](CO)N1C[C@H](C)[C@@H](CN(C)Cc2ccc(C(=O)Nc3ccccc3N)cc2)Oc2c(NC(=O)c3cnccn3)cccc2C1=O	i
C[C@@H](NC(=O)[C@H]1[C@H](CO)[C@H]2Cn3c(cccc3=O)[C@H]2N1S(C)(=O)=O)c1ccccc1	i
O=C(C[C@@H]1CC[C@H](NC(=O)c2ccncc2)[C@H](CO)O1)NCC1CC1	i
O=C([C@H]1[C@H](CO)[C@H]2Cn3c(ccc(-c4cccnc4)c3=O)[C@@H]1N2CC1CC1)N1CCCCC1	i
Cc1ccc(S(=O)(=O)N[C@H]2CC[C@@H](CCNC(=O)Cc3ccccn3)O[C@H]2CO)cc1	i
O=C(C[C@H]1C=C[C@@H](NC(=O)Cc2ccccn2)[C@@H](CO)O1)NCCc1ccncc1	i
COc1ccccc1CN1CC[C@@H]2[C@@H](CO)Nc3ccc(-c4cccc(F)c4)cc3[C@@H]21	i
C[C@@H]1CCCCO[C@@H](CN(C)S(=O)(=O)c2ccc(F)cc2)[C@@H](C)CN([C@@H](C)CO)C(=O)c2cc(NC(=O)CCC(F)(F)F)ccc2O1	i
C[C@@H]1CN([C@@H](C)CO)C(=O)Cc2cc(NC(=O)CCCCCC(=O)Nc3ccccc3N)ccc2O[C@@H]1CN(C)S(=O)(=O)c1cccs1	i
CC=Cc1ccc2n(c1=O)C[C@H]1[C@H](CO)[C@@H](C(=O)N[C@H](C)c3ccccc3)[C@@H]2N1Cc1cncnc1 (mixture of isomers)	i
C[C@H](CO)N1C[C@H](C)[C@@H](CN(C)Cc2ccc3c(c2)OCO3)Oc2ccc(NC(=O)Nc3cccc4ccccc34)cc2CC1=O	i

Structural class: the compounds so far containing two or more sulfur atoms (5)
SMILES	FGF22 binding
C[C@H]1CN([C@@H](C)CO)C(=O)Cc2cc(NC(=O)CCCN(C)C)ccc2O[C@@H]1CN(C)S(=O)(=O)c1cccs1	i
CNC[C@@H]1Oc2c(NS(=O)(=O)c3cccs3)cccc2C(=O)N([C@H](C)CO)C[C@H]1C	i
C[C@@H]1CN([C@H](C)CO)C(=O)c2cc(NS(=O)(=O)c3cccs3)ccc2O[C@@H](C)CCCCO[C@@H]1CN(C)Cc1ccc(Cl)c(Cl)c1	i
C[C@@H]1CN([C@H](C)CO)C(=O)Cc2cc(NS(=O)(=O)c3cccs3)ccc2O[C@H]1CN(C)S(=O)(=O)c1cn(C)cn1	i
C[C@@H]1CN([C@@H](C)CO)C(=O)Cc2cc(NC(=O)CCCCCC(=O)Nc3ccccc3N)ccc2O[C@@H]1CN(C)S(=O)(=O)c1cccs1	i

Remaining list, next part
SMILES	FGF22 binding
C[C@H](CO)N1C[C@H](C)[C@H](CN(C)C(=O)Cc2ccccc2)Oc2ncc(C#Cc3ccccc3F)cc2C1=O	i
C[C@@H]1CN([C@@H](C)CO)C(=O)c2cc(C#CC3(O)CCCC3)cnc2O[C@H]1CN(C)C(=O)C1CCC1	i
CCc1cnc(N2[C@H](C#N)[C@@H](c3ccccc3)[C@H]2CO)s1	i
C[C@@H]1CN([C@@H](C)CO)C(=O)c2cc(NC(=O)Cn3cnnn3)ccc2O[C@@H]1CN(C)S(=O)(=O)c1cccs1	i
COc1cccc(-c2ccc([C@@H]3[C@H](CO)N4C(=O)CN(C(=O)c5cccnc5)C[C@@H]34)cc2)c1	i
Cc1noc(C)c1S(=O)(=O)N(C)C[C@H]1Oc2c(NC(=O)c3ccc(-c4nccs4)cc3)cccc2C(=O)N([C@H](C)CO)C[C@@H]1C	i
COc1ccc2c3c([nH]c2c1)[C@@H](CO)N(C(=O)C1CCC1)CC31CN(S(C)(=O)=O)C1	i
C[C@@H]1CN([C@H](C)CO)C(=O)Cc2cc(N(C)C)ccc2O[C@H]1CN(C)S(=O)(=O)c1ccccc1	i
COCC#Cc1ccc2c(c1)O[C@@H](CN(C)Cc1ccc3c(c1)OCO3)[C@H](C)CN([C@@H](C)CO)S2(=O)=O	i
COc1ccc(S(=O)(=O)N(C)C[C@H]2OCCCC[C@H](C)Oc3ccc(NC(=O)CCCN(C)C)cc3C(=O)N([C@@H](C)CO)C[C@H]2C)cc1	i

Random excerpt: 2 records from the list, in no set order.
SMILES	FGF22 binding
COc1cccc(-c2ccc([C@@H]3[C@H](CO)N4C(=O)CN(C(=O)c5cccnc5)C[C@@H]34)cc2)c1	i
CCc1cnc(N2[C@H](C#N)[C@@H](c3ccccc3)[C@H]2CO)s1	i

The main list resumes, starting two compounds before the break.
SMILES	FGF22 binding
COCC#Cc1ccc2c(c1)O[C@@H](CN(C)Cc1ccc3c(c1)OCO3)[C@H](C)CN([C@@H](C)CO)S2(=O)=O	i
COc1ccc(S(=O)(=O)N(C)C[C@H]2OCCCC[C@H](C)Oc3ccc(NC(=O)CCCN(C)C)cc3C(=O)N([C@@H](C)CO)C[C@H]2C)cc1	i
C[C@@H]1CN([C@H](C)CO)C(=O)c2cc(NC(=O)Nc3ccc(C(F)(F)F)cc3)ccc2O[C@@H](C)CCCCO[C@@H]1CN(C)Cc1ccc2c(c1)OCO2	i
N#C[C@H]1[C@H](c2ccc(C#Cc3ccccc3F)cc2)[C@H](CO)N1C(=O)C1CC1	i
COc1ccccc1NC(=O)N1C[C@@H](O)COC[C@@H]2O[C@@H](CC(=O)NCc3ccccc3)CC[C@H]21	i
C[C@H]1CN([C@@H](C)CO)C(=O)Cc2cc(NS(C)(=O)=O)ccc2O[C@H]1CN(C)Cc1ccncc1	i
COc1ccc2c3c(n(C)c2c1)[C@H](CO)NCC31CN(Cc2cc(-c3ccccc3)on2)C1	i
O=C(C[C@H]1CC[C@@H]2[C@H](COC[C@H](O)CN2C(=O)c2ccc(F)cc2)O1)N1CCOCC1	i
C[C@@H]1CCCCO[C@@H](CN(C)S(=O)(=O)c2ccc(F)cc2)[C@@H](C)CN([C@H](C)CO)C(=O)c2cc(NC(=O)CCCCCC(=O)Nc3ccccc3N)ccc2O1	i
COCC(=O)Nc1ccc2c(c1)[C@H]1C[C@H](CC(=O)N3CCN(C)CC3)O[C@@H](CO)[C@H]1O2	i
CC(C)NC(=O)Nc1ccc2c(c1)CC(=O)N([C@H](C)CO)C[C@H](C)[C@H](CN(C)C(=O)NC1CCCCC1)O2	i
COc1ccccc1C(=O)Nc1ccc2c(c1)C(=O)N(C)[C@@H]1CC[C@@H](CC(=O)NCc3ccc(Cl)c(Cl)c3)O[C@H]1CO2	i
CCCNC(=O)N1[C@H](CO)[C@@H](c2ccc(-c3ccccc3F)cc2)[C@@H]1C#N	i
C[C@H](CO)N1C[C@H](C)[C@H](CN(C)CC2CC2)Oc2cc(C3=CCCC3)ccc2S1(=O)=O	i
C/C=C/c1cnc2c(c1)C(=O)N([C@H](C)CO)C[C@@H](C)[C@@H](CN(C)C(=O)CN1CCOCC1)O2	i
Cc1noc(C)c1NC(=O)Nc1ccc2c(c1)C(=O)N([C@@H](C)CO)C[C@H](C)[C@@H](CN(C)Cc1ccc(Cl)c(Cl)c1)OCCCC[C@@H](C)O2	i
C[C@H](C(=O)N(C)C[C@@H]1OCc2ccccc2-c2ccccc2C(=O)N([C@@H](C)CO)C[C@H]1C)c1ccccc1	i
CCCN1C[C@@H](C)[C@@H](OC)CN(C)C(=O)c2ccc(NC(=O)Nc3c(C)noc3C)cc2OC[C@@H]1C	i
CN1c2ccc(-c3cccc(F)c3)cc2[C@H]2[C@H](CCN2C(=O)Cc2ccccc2)[C@@H]1CO	i
CCCNC(=O)N1CCC2(CC1)CN(C(=O)CC)[C@H](CO)c1[nH]c3cc(OC)ccc3c12	i
C[C@@H]1CN([C@@H](C)CO)C(=O)c2cc(/C=C/c3ccccc3)cnc2O[C@H]1CN(C)Cc1ccncc1	i
C=CCN1C(=O)c2n[nH]c(C(C)C)c2C1c1ccc(C)cc1 (stereo unspecified)	i
C[C@@H]1CCCCO[C@@H](CN(C)C(=O)CCCN(C)C)[C@@H](C)CN([C@H](C)CO)C(=O)c2cc(NC(=O)Nc3ccc4c(c3)OCO4)ccc2O1	i
C[C@H](CO)N1C[C@H](C)[C@H](CN(C)Cc2ccc(C(F)(F)F)cc2)Oc2ccc(NC(=O)Nc3ccc(F)cc3)cc2CC1=O	i
CCCNC(=O)N1C[C@@H]2[C@H](c3ccccc31)[C@@H](CO)N2C(=O)NC(C)C	i

Source: PubChem (Broad Institute)
